# Bioassay records: PubChem BioAssay, National Center for Advancing Translational Sciences (NCATS)
# MARV entry inh – qHTS for inhibitors of binding or entry into cells for Marburg Virus; AID 540276, 2011; Potency, µM (doses to about 37.8 µM), for the others: at the top dose activity change, negative = inhibition, usual class: inhibitors; 300,000 tested, 1.8% active; Marburg virus pseudotyped entry inhibition, cell reporter; control for the full effect not named in the record; about a third of the inactives were read at about 46 µM; active = well fitted inhibition curve with a large enough effect; inconclusive = small, poorly fitted or top-dose-only effect, or effect the other way; inactive = flat fitted curve, though single readings scatter; tested in HEK293 cells; about a fifth of its hits are not listed in these tables; also: % is scaled to controls: 0 for no effect and ±100 for the full control effect; luciferase read-out
# Lassa entry inh – qHTS for Inhibitors of binding or entry into cells for Lassa Virus; Lassa virus pseudotype entry inhibition, cell reporter; control for the full effect not named in the record; Potency, µM (top dose mostly 37.9 µM), without a hit: top-dose activity change, negative = inhibition, usual class: inhibitors; 300,000 tested, 1.2% active; AID 540256, 2011; active means well fitted inhibition curve with a large enough effect; inconclusive means small, poorly fitted or top-dose-only effect, or effect the other way; inactive means flat fitted curve, though single readings scatter; tested in HEK293 cells; also: % is scaled to controls: 0 for no effect and ±100 for the full control effect; nearly all actives have a fitted effect of over 50% in size; luciferase read-out
# RE007 growth inh – qHTS Assay for Inhibitors of the HIV-1 protein Vpr; S. pombe RE007 Vpr strain, BacTiter-Glo ATP luminescence, 24 h; control for the full effect not named in the record; Potency, µM (series often up to 92.2 µM), for inactives: top-dose activity change, negative = less growth; 360,000 tested, 0.21% active; active = well fitted falling curve with a large enough effect; inconclusive = small, poorly fitted or top-dose-only effect; inactive = no such curve, though single readings can be large or run the other way;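 also: % is scaled to controls: 0 for no effect and ±100 for the full control effect; nearly all actives have a fitted effect of over 50% in size; the assay follows cell death caused by Vpr and the record does not say whether a fall means rescue or toxicity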
#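 Fission yeast strain RE007, carrying one chromosomally integrated HIV-1 vpr copy, was seeded at OD 0.01 in PMG+AL medium with 23 nL pinned compound. After 24 h at 30 °C and 99% humidity, viability was read by BacTiter-Glo luminescence.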
# NS1 function inh – qHTS Assay for Inhibitors of Influenza NS1 Protein Function; S. cerevisiae slowed by influenza A NS1, growth recovery by OD600; Potency, µM (doses to about 46.1 µM), without a hit: at the highest dose activity, positive = more growth; AID 2326, 2010; 270,000 tested, 0.4% active; also: actives are rising curves; nearly all actives have a fitted effect of over 50% in size
#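 OD600 was taken as the measure of yeast growth restored by compound in an NS1-expressing S. cerevisiae strain. Cells had been washed out of glucose medium and diluted 1:100 into galactose -URA medium, pH 6.0.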
# Cruzain inh Det – qHTS Assay for Promiscuous and Specific Inhibitors of Cruzain (with detergent). Cruzipain (Trypanosoma cruzi), P25779. purified cruzain, Z-FR-AMC fluorescence, 0.01% Triton. Potency, µM, for inactives: max response, negative = inhibition, most hits filed as inhibitors. 200,000 tested, 0.43% active. AID 1478, 2009; active = well fitted curve in the direction sought with a large enough effect; inconclusive = small, poorly fitted or top-dose-only effect, or another doubt; inactive = no such curve, though single readings can be large; an effect the other way counts as inactive or inconclusive;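 also: plate controls were neutral wells for no effect and buffer without enzyme for full effect; nearly all actives have a fitted effect of over 40% in size; top concentration of the series not given in the record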
# Target sequence (P25779 123-467 limits assumed): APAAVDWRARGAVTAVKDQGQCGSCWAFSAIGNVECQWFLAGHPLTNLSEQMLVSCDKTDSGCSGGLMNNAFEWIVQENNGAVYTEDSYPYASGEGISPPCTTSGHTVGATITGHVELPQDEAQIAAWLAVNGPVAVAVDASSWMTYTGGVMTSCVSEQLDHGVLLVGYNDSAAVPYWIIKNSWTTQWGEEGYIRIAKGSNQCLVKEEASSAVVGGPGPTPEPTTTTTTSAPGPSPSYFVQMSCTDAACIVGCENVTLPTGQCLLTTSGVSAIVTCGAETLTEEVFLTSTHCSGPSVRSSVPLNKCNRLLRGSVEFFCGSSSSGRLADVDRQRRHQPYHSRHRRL
#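 Sodium acetate buffer (100 mM, pH 5.5) containing 5 mM DTT and 0.01% Triton X-100 hosted 1.5 nM cruzain and test compound for 15 min at room temperature. Cleavage of 2 uM Z-FR-AMC was then tracked by fluorescence.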
# SARS PLpro yeast – qHTS of Yeast-based Assay for SARS-CoV PLP; S. cerevisiae expressing SARS-CoV PLpro, growth rescue; control for the full effect not named in the record; Potency, µM (top dose mostly 32.9 µM), for inactives: top-dose activity, positive = growth rescue; 330,000 tested, 0.19% active; also: 0% is about no effect; nearly all actives have a fitted effect of over 55% in size; growth read by luminescence after 48 h
# Cruzain inh noDet – qHTS Assay for Promiscuous and Specific Inhibitors of Cruzain (without detergent) | AID 1476, 2009 | 200,000 tested, 2.3% active | purified cruzain, Z-FR-AMC fluorescence, no detergent | Potency, µM, for inactives: max response, negative = inhibition, actives largely listed as inhibitors | Cruzipain (Trypanosoma cruzi), P25779; active = well fitted curve in the direction sought with a large enough effect; inconclusive = small, poorly fitted or top-dose-only effect, or another doubt; inactive = no such curve, though single readings can be large; an effect the other way counts as inactive or inconclusive;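 also: plate controls were enzyme without inhibitor for no effect and buffer without enzyme for full effect; nearly all actives have a fitted effect of over 40% in size; top concentration of the series not given in the record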
#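 Purified cruzain at 1.5 nM, pre-incubated 15 min with compound at room temperature in 100 mM sodium acetate pH 5.5, 5 mM DTT, 0.00005% Triton X-100. Reaction started with 2 uM Z-FR-AMC; AMC fluorescence increase over 60 s gives rate.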
# 2A StopGo – High Throughput Screening for Foot and Mouth Disease Virus Antivirals. human cells with a luciferase reporter of 2A StopGo recoding; control for the full effect not named in the record. Potency, µM (titrated, usually from 57.9 µM), for inactives: top-dose signal change, negative = less light. 410,000 tested, 1.2% active. AID 1159524, 2015; active = well fitted falling curve with a large enough effect; inconclusive = small, poorly fitted or top-dose-only effect; inactive = no such curve, though single readings can be large or run the other way; tested in HEK293T cells; also: % is scaled to controls: 0 for no effect and ±100 for the full control effect; nearly all actives have a fitted effect of over 45% in size; luciferase light after 4 h
# Numbers without * were called inactive; ? = inconclusive; nt = no result given; [ ] = remark or other dose. Unless noted, calls follow the shape of the dose curve; as a rule, active means well fitted rising curve with a large enough effect; inconclusive means small, poorly fitted or top-dose-only effect; inactive means no such curve, though single readings can be large or run the other way. Potency is read from the fitted curve at half-maximal effect.
SMILES,MARV entry inh,Lassa entry inh,RE007 growth inh,NS1 function inh,Cruzain inh Det,SARS PLpro yeast,Cruzain inh noDet,2A StopGo
O=C1C2C3CCC(O3)C2C(=O)N1CCO (stereo not drawn),-1.8%[46.1 µM],27.7%[46.1 µM],-2.7%,-6.5%,nt,0.6%,nt,16.5%
O=c1[nH]c2ccc(Cl)cc2c(-c2ccccc2)c1SC(=S)N1CCOCC1,?,-25.5%,8.5%,9.1%,-12.4%,11.0%,19.3%,?
Cc1nnc(SC(C)C(=O)NC2CCCCC2C)s1 (stereo not drawn),18.9%,9.6%,10.8%,nt,nt,2.7%,nt,-11.2%
COc1cccc(-c2cc(C(=O)NCc3ccco3)c3ccccc3n2)c1,-26.6%[46.1 µM],?,9.1%,6.1%,nt,-7.1%,nt,-12.5%
COc1ccc(CCn2c(NCCCN3CCOCC3)nc3c2c(=O)[nH]c(=O)n3C)cc1,23.0%[46.1 µM],-16.9%,20.7%,-8.3%,6.2%,-4.5%,-10.6%,-1.5%
Cc1cccn2c(=O)c(C(=O)NC3CCCCC3)c(O)nc12,nt,nt,61.8%,-40.4%,nt,-2.5%,nt,28.7%
Cc1nn(-c2ccccc2)c(C)c1C(=O)OCC(=O)Nc1ccccc1,2.9%,-17.0%,-20.1%,nt,nt,-4.6%,nt,-9.2%
COc1ccc(C=CC(C)=NNC(=O)c2ccncc2)cc1,?,-17.8%,-2.0%,nt,nt,nt,nt,-18.1%
COc1ccccc1N=C1SC(C(=O)Nc2cccc(Cl)c2Cl)C(N)=C1C(N)=O (stereo not drawn),?,-16.4%,-6.9%,2.6%,nt,0.2%,nt,17.2%
CNC(=O)c1ccccc1Sc1cccc2cccc(C(=O)O)c12,nt,nt,2.7%,-1.6%,nt,3.1%,nt,0.8%
CC(C)NS(=O)(=O)c1ccc(CCC(=O)NCc2ccco2)cc1,0.0%,-17.6%,5.2%,4.7%,2.5%,1.7%,-3.7%,0.9%
NC(=S)N/N=C/c1ccccc1OC(=O)/C=C/c1ccccc1,nt,nt,13.8%,26.4%,nt,11.9%,nt,-20.4%
COCCN(C(=O)COC(=O)c1ccc(Cl)s1)c1c(N)n(Cc2ccccc2)c(=O)[nH]c1=O,9.4%,24.2%,-28.7%,nt,nt,-2.7%,nt,-13.1%
O=C(Nc1ccccc1SCC1CSc2nc3ccccc3c(=O)n21)c1ccccc1 (stereo not drawn),?,?,0.6%,-5.1%,-2.7%,-3.9%,8.6%,-8.5%
Cc1cc(NC(=O)C2CC(=O)N(c3ccccc3)C2)no1 (stereo not drawn),?,?,8.5%,7.1%,-0.7%,10.2%,0.1%,-19.9%
COc1ccc(OC)c(C(C)NC(=O)c2ccco2)c1 (stereo not drawn),?,-27.5%,-10.8%,-6.9%,8.9%,-2.3%,-6.1%,nt
Cc1cc(C(=O)Nc2cccc3ccccc23)n(-c2ccccc2)n1,-7.7%[46.1 µM],-28.7%[46.1 µM],-10.0%,nt,nt,-2.8%,nt,-11.6%
Cc1ccc2c(c1)CC1(CN2C)C(=O)NC(=O)N(CCC2=CCCCC2)C1=O (stereo not drawn),-0.3%,-4.9%,14.0%,-47.2%,-1.7%,-3.5%,-5.3%,0.0%
O=C(O)CN=C(NS(=O)(=O)c1ccccc1)c1ccccc1,9.8%,-5.1%,6.0%,5.8%,-3.4%,-5.0%,-4.4%,-20.1%
COc1ccc(C)cc1S(=O)(=O)N1CCN(Cc2ccccc2)CC1,4.9%,-1.3%,-4.4%,-8.2%,5.7%,1.2%,-3.0%,17.5%
O=C(COc1ccc2ccc(=O)oc2c1)Nc1cccc(S(=O)(=O)N2CCCCC2)c1,-7.2%,5.5%,6.0%,nt,nt,-5.1%,nt,14.1µM*
Cc1nn(CCCC(=O)Nc2cccc(F)c2)c(=O)c2c1sc1ccccc12,?,-9.8%[46.1 µM],nt,nt,-3.9%,nt,5.9%,-17.5%
Cc1cnc(C(=O)OCC(=O)NCc2ccc3c(c2)OCO3)cn1,-0.7%[46.1 µM],9.4%,-4.5%,2.6%,nt,-0.7%,nt,4.5%
Cc1cc(=O)oc2cc(NC(=O)C(C)Oc3cccc(Cl)c3)ccc12 (stereo not drawn),-7.7%,-17.7%,-18.7%,nt,nt,1.7%,nt,-4.6%
COc1nc(-c2ccccc2)ccc1-c1noc(-c2cccs2)n1,-17.5%,-6.4%,14.4%,6.8%,nt,nt,nt,65.7%[activator]
SMILES,MARV entry inh,Lassa entry inh,RE007 growth inh,NS1 function inh,Cruzain inh Det,SARS PLpro yeast,Cruzain inh noDet,2A StopGo
COC(=O)[C@@H](NC(=O)NCc1ccccc1Cl)C(C)C,-10.9%,-0.1%,-3.5%,-2.2%,2.5%,-1.0%,2.2%,-10.6%
CCNC(=S)N/N=C/c1ccc(OCCOc2ccccc2C)cc1,?,?,-3.9%,10.7%,1.6%,1.0%,15.8µM*,-2.1%
CC1CC(O)(Cc2ccccc2)C(C)CN1C (stereo not drawn),-5.5%,8.9%,-2.1%,0.3%,2.9%,?,-8.3%,-19.4%
Cc1cc(N2C(=O)c3ccc(C(=O)Nc4ccc(CC(=O)O)cc4)cc3C2=O)no1,18.1%[46.1 µM],1.1%[46.1 µM],-6.6%,4.9%,nt,2.7%,nt,-12.1%
CCn1cnc2cc(NCc3ccc(Br)cc3)ccc21,?,?,-8.7%,-10.0%,nt,-1.8%,nt,-6.1%
O=C(COC(=O)c1cnc(Cl)c(Cl)c1)NCc1ccc2c(c1)OCO2,0.4%,-0.3%,-18.9%,3.1%,-2.8%,-18.3%,-5.8%,-11.6%
Cc1cc(C)c2nc(N3CCC(C(=O)NCCN4CCOCC4)CC3)sc2c1,2.6%[46.1 µM],-5.3%[46.1 µM],5.7%,-3.4%,nt,-0.4%,nt,14.4%
COc1ccccc1N1CCN(C(=O)Cn2c(=O)n3nc(-c4cccc(C)c4)nc3c3ccccc32)CC1,nt,25.4%[46.1 µM],nt,nt,1.2%,nt,3.6%,-7.7%
O=S1(=O)CCC(n2ncc3c2/C(=C/c2ccccc2)CC3)C1 (stereo not drawn),?,nt,3.0%,-13.5%,nt,0.0%,nt,-18.9%
CN(C(=O)c1ccc(Cl)c([N+](=O)[O-])c1)C1(C)CCS(=O)(=O)C1 (stereo not drawn),-1.0%[46.1 µM],-7.5%,-2.8%,nt,nt,-9.6%,nt,-5.1%
NNC(=O)CSc1nnnn1-c1ccccc1,nt,nt,14.5%,5.2%,nt,-0.3%,nt,-10.7%
COc1ccc(OC)c(C(O)c2nc3ccccc3n2C)c1 (stereo not drawn),nt,nt,2.7%,3.6%,nt,0.7%,nt,0.0%
FC(F)(F)c1cccc(-c2nc(-c3ccncc3)no2)c1,?,-1.8%,-0.2%,4.9%,nt,0.3%,nt,60.2%[activator]
CC[n+]1c(/C=C/Nc2ccccc2)sc2ccccc21,?,-23.1%,?,2.0%,-5.7%,-7.1%,-11.4%,-19.6%
CCn1c(SCC(=O)N2c3ccccc3CC2C)nnc1-c1ccco1 (stereo not drawn),0.0%,-8.0%,-7.1%,nt,nt,nt,nt,11.1%
Nc1ccc(CSc2ccc(Cl)cc2)cc1,-3.1%[46.1 µM],-16.2%[46.1 µM],30.3%,nt,nt,-13.5%,nt,20.3%
CCOC(=O)C1CCCN(C(=O)c2ccc3nc(-c4ccccc4)c(-c4ccccc4)nc3c2)C1 (stereo not drawn),nt,nt,-1.2%,14.0%,nt,1.0%,nt,-22.1%
CCOc1ccccc1-n1c(O)c(C=NCCCN(CC)CC)c(=O)[nH]c1=O,12.5%,16.3%,11.0%,0.8%,1.6%,-6.6%,-3.7%,-12.0%
COc1cc(-c2nnc(SCC3(c4ccccc4)OCCO3)o2)cc(OC)c1OC,-8.8%,?,12.5%,-12.4%,-3.0%,0.6%,?,-23.8%
COc1cccc(C(c2sc3nc(-c4ccco4)nn3c2O)N2CCN(C)CC2)c1 (stereo not drawn),nt,0.8%[46.1 µM],nt,nt,0.2%,nt,-9.6%,-8.1%
N=C1C(c2nc3ccccc3[nH]2)=C(O)CN1c1ccc(CC(=O)O)cc1,5.7%,6.0%,9.5%,7.4%,-0.2%,1.4%,-4.4%,-1.0%
O=C(c1ccc(F)cc1)N1CCN(C(=O)c2ccc([N+](=O)[O-])cc2)CC1,1.6%[46.1 µM],22.0%,11.5%,-3.8%,nt,1.0%,nt,-24.2%
Cc1ccc(CNC(=O)CCCn2c(=O)c3ccccc3n(CC(=O)NC3CCCC3)c2=O)cc1,13.4%,20.7%,-1.6%,1.9%,6.3%,3.0%,-15.6%,?
CC(C)N(Cc1nc(-c2ccc(Cl)cc2)no1)C(=O)CCCN1C(=O)c2ccccc2C1=O,-1.5%,nt,-7.2%,-51.9%,-3.7%,-11.0%,?,-20.7%
CSc1cccc(N2CC(C(=O)N(CC(C)C)c3c(N)n(Cc4ccccc4)c(=O)[nH]c3=O)CC2=O)c1 (stereo not drawn),5.4%,-18.5%,0.6%,nt,nt,-5.0%,nt,8.5%
CCOC(=O)CC(=O)CSc1nc2c(C)c(C)ccc2cc1C,?,?,-15.1%,12.2%,-5.0%,-11.4%,2.4%,-28.9%
O=C(COc1ccccc1Cl)NCCCNC(=O)c1ccco1,19.0%[46.1 µM],1.7%[46.1 µM],1.1%,?,nt,0.5%,nt,2.4%
COc1cc(NC(=O)c2ccc(Cl)cc2)c(Cl)cc1NC(=O)c1cccnc1,nt,nt,-0.8%,5.7%,nt,0.1%,nt,-20.7%
Cc1oc(C(=O)O)cc1COc1ccc2c3c(c(=O)oc2c1C)CCCC3,nt,nt,nt,-2.3%,1.5%,3.3%,-1.3%,nt
